# High-throughput results (PubChem)
# AF4-AF9 inh – inhibitors of human MLL-AF4/AF9 interaction; AlphaScreen, biotin-AF4 peptide binding to FLAG-AF9; 350,000 compounds, 0.47% hits; P42568; AID 651704; inhibition, % at 10 µM;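 active = every replicate reaching a set inhibition limit, whatever the replicate mean, cut at about 25% in these data; inconclusive = mean inhibition reaches that limit but some replicates miss it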;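 note: 0% = plate neutral control median and 100% = total signal loss; the record names both 10 and 1 µM as test concentration; the first replicate is given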
# Target sequence (P42568 whole entry, looked up): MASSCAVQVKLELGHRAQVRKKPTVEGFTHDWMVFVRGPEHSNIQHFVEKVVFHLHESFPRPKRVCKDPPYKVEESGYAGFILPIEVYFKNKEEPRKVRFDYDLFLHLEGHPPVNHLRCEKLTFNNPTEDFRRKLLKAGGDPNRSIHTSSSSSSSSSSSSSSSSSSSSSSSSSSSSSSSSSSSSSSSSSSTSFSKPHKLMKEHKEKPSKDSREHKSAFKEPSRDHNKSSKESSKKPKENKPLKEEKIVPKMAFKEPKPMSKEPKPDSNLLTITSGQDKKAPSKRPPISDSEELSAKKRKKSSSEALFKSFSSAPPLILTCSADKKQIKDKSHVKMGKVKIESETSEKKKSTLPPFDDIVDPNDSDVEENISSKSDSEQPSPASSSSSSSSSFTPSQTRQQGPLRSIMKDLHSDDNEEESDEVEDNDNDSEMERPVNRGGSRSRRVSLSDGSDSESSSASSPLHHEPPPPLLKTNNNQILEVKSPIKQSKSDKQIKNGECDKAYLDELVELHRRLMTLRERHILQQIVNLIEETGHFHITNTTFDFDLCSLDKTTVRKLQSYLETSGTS
# FGF22 binding – shifts melting point of recombinant human FGF22 | Q9HCT0 | recombinant FGF22 thermal shift, SYPRO orange fluorescence; percent of sucrose octasulfate shift, DMSO zero | calls only at 9.99 µM | 340,000 compounds, 1.5% hits;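 active = melting point raised past a set limit in the mean and every replicate; inconclusive = no clear call; three in four hits are not shown here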
# Target sequence (Q9HCT0 whole entry, looked up): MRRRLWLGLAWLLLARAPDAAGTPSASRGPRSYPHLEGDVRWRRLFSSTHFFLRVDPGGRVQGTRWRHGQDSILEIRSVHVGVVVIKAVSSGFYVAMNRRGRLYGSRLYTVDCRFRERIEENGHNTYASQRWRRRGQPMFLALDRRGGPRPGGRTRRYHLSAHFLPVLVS
# Vif TR-FRET – HIV-1 Vif–A3G interaction blockers – biochemical, TR-FRET, GST-Vif 1-94, biotin-A3G peptide, dose response retest, primary screen (AID 1117319) | inhibition, %; hits with a dose series show IC50 in µM | 260,000 compounds, 0.57% hits | TR-FRET GST-Vif / biotin-A3G peptide binding; higher % means a stronger effect; test concentration not given here; strong numbers were not always called active;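 active = above the screen mean plus three standard deviations and confirmed in dose response; inconclusive = results disagree or hit not tested in dose response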;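 note: Vif residues 1-94 fused to GST binding biotinylated APOBEC3G peptide 110-148; 0% = full assay without inhibitor and 100% = GST in place of GST-Vif; retest series ran down from 100 µM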
# Ecoli growth – blocks Escherichia coli growth; OD600 absorbance (test concentration not listed); AID 1053175; 330,000 compounds, 0.21% hits; OD600, 23 h; stronger effect = lower value;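 active = OD600 absorbance below the run mean of sample wells minus 3.6 SD, in any replicate, cut at about 0.56 in these data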;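 note: stock transfer was 300 nL into about 60 µL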
# RanGTP-Imp inh – disruptors of Ran-importin-beta complex formation – biochemical, FRET, CFP-Ran, YFP-importin-beta, homogeneous, primary screen; cell-free CFP-Ran/YFP-importin-beta FRET ratio; 300,000 compounds, 1.1% hits; AID 2216; inhibition, % (no concentration beside the values);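 active = most replicates above 15%; inconclusive = exactly half above 15%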;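 note: 0% = DMSO wells and 100% = Ran loaded with GDP instead of GTP; wells of about 40 µL received 100 nL stock; the first replicate is given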
# UCH37 DUB inh – human UCH37 deubiquitinating enzyme inhibition | inhibition, % (concentration not given with the values) | 330,000 compounds, 0.33% hits | AID 588478 | Q9Y5K5 | purified proteasome/UCH37, Ub-AMC cleavage fluorescence;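 active = mean of two replicates above 20%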;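 note: 0% = compound-free wells with enzyme and 100% = wells lacking proteasome; stock transfer was 100 nL into about 20 µL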
# Target sequence (Q9Y5K5 whole entry, looked up): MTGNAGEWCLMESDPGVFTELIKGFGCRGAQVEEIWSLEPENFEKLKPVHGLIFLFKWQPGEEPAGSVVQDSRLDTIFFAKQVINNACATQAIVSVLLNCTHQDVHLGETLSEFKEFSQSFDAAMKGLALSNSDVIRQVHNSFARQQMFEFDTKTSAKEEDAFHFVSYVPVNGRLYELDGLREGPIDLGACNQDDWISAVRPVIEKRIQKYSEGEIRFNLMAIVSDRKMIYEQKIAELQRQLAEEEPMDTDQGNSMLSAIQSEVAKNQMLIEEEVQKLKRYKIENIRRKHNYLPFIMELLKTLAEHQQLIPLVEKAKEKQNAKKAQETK
#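 Material: Human UCH37 enzyme supplied as purified proteasome complex | Schedule: 30 min preincubation with enzyme, 25 min cleavage at room temperature | Detection: AMC fluorescence 355/460 nm | Measure: % inhibition of Ub-AMC cleavage fluorescence | Controls: Wells without proteasome as full block, compound-free enzyme plus substrate as uninhibited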
# HNF4A DNA FP – change in binding of human HNF4 alpha to DNA; P41235; HNF4a-FITC DNA binding, fluorescence polarization, 1 h; activity change, % at 10 µM; 360,000 compounds, 0.3% hits; AID 1224865; in the data active = activity change above about 30%, passing the limit was not always enough;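 note: controls were the assay level and a saturating level of protein; the project sought stronger binding though the title names inhibitors; some compounds called inactive have numbers as strong as hits; positive values seem to mean higher polarization but the record does not say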
# Active calls of the source: *; i = inactive; ? = inconclusive; · = no result given; & = joins results of further samples.
SMILES,AF4-AF9 inh,FGF22 binding,Vif TR-FRET,Ecoli growth,RanGTP-Imp inh,UCH37 DUB inh,HNF4A DNA FP
COc1ccc(NC(=O)Nc2ccccc2C(N)=O)cc1,-0.9,i,32%,0.71,3.7,-3.6,-1.6
COc1cccc(CNC(=O)c2ccc(NS(=O)(=O)c3ccc4[nH]c(=O)[nH]c4c3)cc2)c1,2.8,i,-5%,0.67,·,0.2,1.5
Cc1noc(C)c1C(=O)Nc1nc2ccccc2s1,2.5,i,-4%,0.67,·,5.9,-2.6
O=C(Cc1c(Cl)cccc1Cl)OCc1ccccn1,1.1,i,·,0.68,-2.0,1.7,-1.6
CCC(C(=O)Nc1c(C)cccc1C)n1c(-c2ccc(=O)[nH]c2)nc2ccccc21 (stereo unspecified),4.4,i,·,·,·,·,3.0
O=C(Cn1nc(Br)nc1Br)c1ccccc1,2.5,i,-5%,0.64,-0.6,1.7,-1.8
Cc1cccc(NC(=S)NCc2ccc(F)cc2)c1C,2.8,i,·,0.64,0.1,1.6,-1.1
COCCN1CCc2c(C)nc3c(-c4ccc(OC)c(OC)c4)cnn3c21,·,·,21%,0.74,0.0,-3.9,1.4
COc1ccc2nc(SC)c(C#N)cc2c1,-1.5,·,5%,0.72,4.1,-0.1,5.0
Cc1cccc(OCC(=O)N/N=C/c2ccccc2C(=O)O)c1,-1.2,i,·,·,0.3,·,-3.5
C/C(=N\NC(=O)CC#N)C1COc2ccccc2O1 (stereo unspecified),-1.3,i,17%,·,-6.9,·,0.8
Cc1sc(NC(=O)CCC(=O)O)c(C#N)c1C,-2.7,·,·,0.67,4.5,2.0,-0.4
O=C(CCn1nc(-c2ccccc2)ccc1=O)N1CCOCC1,-2.1,i,3%,0.67,-0.3,-3.5,-1.8
Cc1ccc(NC(=O)c2cccc(C(=O)Nc3ccc(C)cc3C(=O)O)c2)c(C(=O)O)c1,-1.9,i,-2%,0.69,1.0,12,-5.2
O=C(CCNC(=O)C1CCN(S(=O)(=O)c2ccccc2)CC1)NCc1ccc(Cl)cc1Cl,0.8,i,·,0.71,9.5,5.7,-1.0
CCC(O)(CC)C(=O)NN(C(=O)CCl)c1ccccc1,-2.0,i,·,0.72,-1.8,2.0,-1.1
CN(C)c1nc(N)nc(Nc2ccccc2C#N)n1,·,·,4%,0.77,?,-1.7,3.3
S=c1nc(-c2ccccc2)c(-c2ccccc2)n[nH]1,1.6,i,-2%,·,1.8,·,-2.7
CCCCN1C(=O)C(CC(=O)NCC2CCCCC2)CC(C(=O)N(CC)CC)=C1C (stereo unspecified),-0.5,i,4%,·,·,·,-0.1
CCn1c2ccccc2c2cc(NC(=O)CNCC3CCCO3)ccc21 (stereo unspecified),5.5,i,11%,0.64,1.2,1.7,2.5
CCN(C(=O)COC(=O)C(C)(C)Oc1ccc(Cl)cc1)c1c(N)n(Cc2ccccc2)c(=O)[nH]c1=O,0.9,i,·,0.68,·,-0.5,-3.5
CCC(C)Sc1nc(O)cc(=O)[nH]1 (stereo unspecified),·,·,15%,0.69,3.8,4.4,-2.2
CCN(CC)CCNC(=O)c1c(O)c2cc(OC)c(OC)cc2[nH]c1=O,·,·,7%,0.73,-1.1,-57,-1.7
COC(=O)c1ccc(NC(=O)CNC(=O)C2CCCCC2)cc1,-2.6,i,4%,0.69,1.8,1.7,2.7
COc1ccccc1C(=O)N1CCN=C1SC,·,·,0%,0.74,-0.5,4.4,-2.4

# Some entries already given, limited to UCH37 DUB inh and AF4-AF9 inh.
compound	UCH37 DUB inh	AF4-AF9 inh
O=C(CCNC(=O)C1CCN(S(=O)(=O)c2ccccc2)CC1)NCc1ccc(Cl)cc1Cl	5.7	0.8
O=C(CCn1nc(-c2ccccc2)ccc1=O)N1CCOCC1	-3.5	-2.1

# Following part:
SMILES,AF4-AF9 inh,FGF22 binding,Vif TR-FRET,Ecoli growth,RanGTP-Imp inh,UCH37 DUB inh,HNF4A DNA FP
COc1ccc(Cl)cc1NC(=O)c1cccc(N2C(=O)C3CC=CCC3C2=O)c1 (stereo unspecified),-3.8,i,·,0.69,0.9,0.9,2.0
CN(C)S(=O)(=O)c1cccc(NC(=O)COc2ccccc2C(=O)Nc2ccccc2)c1,-4.3,i,-5%,·,·,·,-3.2
COc1ccc(OCC(=O)c2c(O)c3ccccc3oc2=O)cc1,4.0,i,28%,0.71,5.7,0.8,6.3
O=C(COC(=O)CCCSc1nc2ccccc2[nH]1)Nc1ccc(Cl)cc1,1.5,i,·,0.67,2.2,5.7,-0.4
O=C1OC(/C=C/c2ccc(Cl)cc2Cl)=NC/1=C\c1cccs1,2.8,i,10%,·,2.6,·,-2.7
COc1ccccc1CCCNC(=O)C1CCC(=O)N(CCc2cccc(F)c2)C1 (stereo unspecified),-0.1,i,·,0.73,1.6,1.8,0.9
Cc1cc2oc(=O)cc(CN3CCOCC3)c2c(C)c1Cl,-1.5,i,-5%,0.69,-1.7,6.6,-1.5
CC(=O)CCC(=O)CNC(=O)CC[C@H]1O[C@@H](n2ccc(=O)[nH]c2=O)[C@H](O)[C@@H]1O,-1.8,i,·,·,·,·,-1.9
O=C(NCCc1ccccc1)[C@@H]1CC=C[C@@H]2CCN(Cc3ccc(Cl)c(Cl)c3)C(=O)[C@@H]21,-1.7,i,·,·,6.3,3.0,-4.2
CCC(C)NC(=O)C1CCN(S(=O)(=O)c2cccnc2)CC1 (stereo unspecified),·,·,2%,0.79,-1.8,2.1,-3.1
O=C(Nc1ccccc1Cl)N1CCN(C/C=C/c2ccccc2)CC1,-4.3,i,?,0.67,-1.6,0.2,0.8
Cn1c(=O)c2c(nc(CN3CCN(Cc4ccccc4)CC3)n2Cc2cccc(Cl)c2)n(C)c1=O,9.4,i,·,0.78,1.4,5.7,5.8
CC1CN(C(=S)SCC(=O)c2ccccc2)CC(C)O1 (stereo unspecified),·,·,·,0.7,0.2,4.9,2.1
CSc1ccc(OC2(C)CCN(Cc3ccccc3)C2)cc1 (stereo unspecified),3.9,i,·,·,·,·,-2.5
O=C(Nc1cccc(NC(=O)c2cccs2)c1)c1ccc2c(c1)OCO2,-0.1,i,0%,0.67,-1.7,3.8,3.0
COCCn1c(C)cc(C(=O)COC(=O)c2ccc(N3CCCC3=O)cc2)c1C,·,·,0%,0.72,1.2,2.6,-1.2
O=C(O)c1ccc(OS(=O)(=O)c2ccc(Cl)s2)c(Cl)c1,-0.6,i,-4%,0.67,·,0.3,4.5
COc1ccc(-c2csc3ncnc(N4CCN(S(=O)(=O)c5ccccc5C#N)CC4)c23)cc1,-0.1,i,-4%,0.74,2.0,2.9,7.4
CCC1CCCCN1C(=O)N[C@@H](Cc1ccccc1)C(=O)O (stereo partly specified),·,·,-2%,0.71,1.0,3.2,2.1
COc1ccc2c(OC)cc(=O)n(C)c2c1,·,·,6%,0.66,-5.2,2.2,-0.4
COc1ccc(-c2cc3cccc(OC)c3oc2=O)cc1,3.9,i,0%,0.66,2.1,-101,4.8
O=C(OCCCN=C1NS(=O)(=O)c2ccccc21)c1ccccc1,0.5,i,-15%,0.69,?,3.2,1.9
CCOC(=O)c1c(C)n(C)c2ccc(OC)c(NC(=O)CN3CCN(C(=O)c4ccco4)CC3)c12,·,·,-3%,0.78,-0.7,2.2,-0.8
O=C(COC(=O)/C=C/c1ccccc1)NNC(=O)c1ccc([N+](=O)[O-])cc1,-0.7,i,2%,0.64,-4.3,1.2,-4.6
CN(CCc1ccccn1)C(=O)CCC1CCCN(C(=O)c2ccccn2)C1 (stereo unspecified),-1.3,i,·,0.74,3.3,1.2,2.5
SMILES,AF4-AF9 inh,FGF22 binding,Vif TR-FRET,Ecoli growth,RanGTP-Imp inh,UCH37 DUB inh,HNF4A DNA FP
S=c1[nH]nc(Cc2cccs2)n1-c1ccccc1,-6.9,i,27%,0.65,-4.4,2.8,-1.9
Cn1c(CNC(=O)c2ccco2)nnc1SCC(=O)Nc1cccc(F)c1,-5.6,i,-5%,0.67,5.3,1.9,0.0
COc1ccc(/C=C/C(=O)c2ccc3c4c(cccc24)CC3)cc1,6.2,i,·,0.72,-0.5,5.2,-0.6
COC(=O)Cc1ccc(NC(=S)N2CCN(C)CC2)cc1,-2.0,i,·,0.66,3.7,1.8,1.5
O=C(CSc1nc2ccccc2[nH]1)N/N=C/C=C\c1ccccc1[N+](=O)[O-],3.8,i,0%,·,-4.7,·,-2.6
COc1ccc(-c2nnn(Cc3ccccc3)n2)cc1OC,0.2,i,·,0.69,-2.5,5.0,0.8
COCCNC(=O)C(c1ccncc1)N(Cc1ccccc1)C(=O)Cn1nnc2ccccc21 (stereo unspecified),-5.9,i,0%,0.69,-0.9,2.1,-3.3
CCCn1c(=S)[nH]c2cc(C(=O)N3CCN(c4ccccc4)CC3)ccc2c1=O,-2.7,i,-1%,·,·,·,1.0
COc1ccc(C2=NO[C@@H]3[C@@H]4C[C@@H]([C@H]5C(=O)N(c6ccc7c(c6)OCO7)C(=O)[C@@H]45)[C@H]23)cc1OC,-2.4,i,·,0.68,-0.3,-1.0,6.7
CCCCOc1ccc(/C=C(\C(=O)O)c2ccc(S(=O)(=O)N3CCCC3)s2)cc1,8.5,i,·,0.68,·,0.4,4.8
Cc1cccn2c(=S)[nH]nc12,-9.9,i,-9%,0.72,·,-21,4.1
CSc1ccc(Cn2c(C)c(C(=O)NCc3ccc4c(c3)OCO4)sc2=O)cc1,-2.0,i,·,·,·,·,0.1
O=C(CS(=O)(=O)Cc1ccccc1)NCC1CCCO1 (stereo unspecified),·,·,1%,0.67,1.9,1.9,-1.1
CCN(CC(=O)Nc1c(F)cccc1F)C(=O)c1cccc(S(=O)(=O)N2CCCc3ccccc32)c1,0.6,i,·,0.68,·,0.6,2.7
CCOC(=O)c1cccc2c(=O)c(C(=O)c3ccc(Cl)cc3)c(C(=O)OC)[nH]c12,·,·,68%,0.7,-0.2,0.1,1.8
Cc1cc(C)cc(NC(=O)CN2CCc3ccccc3C2)c1,·,·,-4%,0.71,-2.4,2.9,1.7
Cc1ccc(S(=O)(=O)N2CCN(C(=O)CSc3nccn3C)CC2)cc1,-21,i,-17%,0.66,-1.9,2.2,3.4
O=C(Oc1ccc[nH]c1=O)C1CC1,-1.3,i,-4%,·,·,·,-1.6
Cc1c(NC(=O)Cn2cc([N+](=O)[O-])cn2)c(=O)n(-c2ccccc2)n1C,-2.7,i,1%,0.73,-0.3,0.1,-0.2
CN1CCN(CCNC(=O)Nc2ccccc2[N+](=O)[O-])CC1,-2.0,i,-4%,0.69,-3.3,1.9,2.1
Oc1cc2ccccc2cc1-c1n[nH]c(=S)o1,·,·,8%,0.65,0.5,-31,-5.0
Cc1ccc(-n2c(C)cc(/C=N/NC(=O)Cn3c4ccccc4c(=O)c4ccccc43)c2C)cc1,-2.2,i,·,·,·,·,5.0
Cc1ccc2cc(CN(CC3CCCO3)S(=O)(=O)c3c(C)ccc4nsnc34)c(=O)[nH]c2c1 (stereo unspecified),·,·,18%&-5%,0.67,0.2,2.9,-3.5
O=[N+]([O-])c1ccc(N/N=C/c2cccnc2)cc1,-13,i,·,·,2.3,·,5.6
COC(=O)c1cccnc1-n1c(=O)c2cccnc2n(Cc2ccc([N+](=O)[O-])cc2)c1=O,-5.9,i,5%,0.67,-2.9,2.8,8.2

# These rows are one share of the data; the hit share may differ from the screen's.
